# Vif TR-FRET – inhibitors of Vif binding to APOBEC3G peptide, primary screen, biochemical, TR-FRET, GST-Vif 1-94, biotin-A3G peptide, dose response retest (AID 1117319); TR-FRET GST-Vif / biotin-A3G peptide binding; higher % means a stronger effect; test concentration not given here; strong numbers were not always called active; inhibition, %, or IC50 in µM where a hit was titrated; 0.57% of 260,000 active;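 active means above the screen mean plus three standard deviations and confirmed in dose response; inconclusive means results disagree or hit not tested in dose response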;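 further: Vif residues 1-94 fused to GST binding biotinylated APOBEC3G peptide 110-148; 0% = full assay without inhibitor and 100% = GST in place of GST-Vif; retest series ran down from 100 µM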
# RanGTP-Imp inh – inhibitors of RanGTP-importin-beta interaction, primary screen, biochemical, FRET, CFP-Ran, YFP-importin-beta, homogeneous | cell-free CFP-Ran/YFP-importin-beta FRET ratio | AID 2216 | 1.1% of 300,000 active | inhibition, % (no concentration beside the values);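 active means most replicates above 15%; inconclusive means exactly half above 15%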;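 further: 0% = DMSO wells and 100% = Ran loaded with GDP instead of GTP; wells of about 40 µL received 100 nL stock; the first replicate is given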
# Ecoli growth – E. coli growth inhibition; 0.21% of 330,000 active; OD600 absorbance (no concentration beside the values); Escherichia coli growth, OD600, 23 h; hits give low values;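 active means OD600 absorbance below the run mean of sample wells minus 3.6 SD, in any replicate, cut at about 0.56 in these data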;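 further: stock transfer was 300 nL into about 60 µL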
# UCH37 DUB inh – inhibitors of human deubiquitinating enzyme UCH37; 0.33% of 330,000 active; purified proteasome/UCH37, Ub-AMC cleavage fluorescence; inhibition, % (no concentration beside the values); Q9Y5K5; AID 588478;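 active means mean of two replicates above 20%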;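 further: 0% = compound-free wells with enzyme and 100% = wells lacking proteasome; stock transfer was 100 nL into about 20 µL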
# Target sequence (Q9Y5K5 whole entry, looked up): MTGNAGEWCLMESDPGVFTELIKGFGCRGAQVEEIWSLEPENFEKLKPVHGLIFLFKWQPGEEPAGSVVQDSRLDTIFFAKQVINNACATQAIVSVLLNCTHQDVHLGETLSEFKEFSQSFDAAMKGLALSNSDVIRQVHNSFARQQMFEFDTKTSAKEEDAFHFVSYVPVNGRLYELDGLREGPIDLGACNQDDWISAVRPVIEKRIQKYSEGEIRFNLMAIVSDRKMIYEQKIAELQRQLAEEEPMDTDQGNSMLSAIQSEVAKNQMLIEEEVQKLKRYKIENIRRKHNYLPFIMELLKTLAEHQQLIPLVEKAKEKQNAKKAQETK
#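 Assay system: Proteasome-bound UCH37. Buffer or medium: pH 7.4 Tris-HCl (50 mM) with ovalbumin, ATP-MgCl2, DTT. Incubation: 30 min preincubation with enzyme, 25 min cleavage at room temperature. Measured by: fluorescence, ex 355 nm, em 460 nm. Read-out basis: percent inhibition. Control set: wells without proteasome as full block, compound-free enzyme plus substrate as uninhibited.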
# HNF4A DNA FP – change in binding of human HNF4 alpha to DNA | AID 1224865 | 0.3% of 360,000 active | activity change, % at 10 µM | HNF4a-FITC DNA binding, fluorescence polarization, 1 h | P41235; in the data active means activity change above about 30%, passing the limit was not always enough;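 further: controls were the assay level and a saturating level of protein; the project sought stronger binding though the title names inhibitors; some compounds called inactive have numbers as strong as hits; positive values seem to mean higher polarization but the record does not say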
# Target sequence (P41235 whole entry, looked up): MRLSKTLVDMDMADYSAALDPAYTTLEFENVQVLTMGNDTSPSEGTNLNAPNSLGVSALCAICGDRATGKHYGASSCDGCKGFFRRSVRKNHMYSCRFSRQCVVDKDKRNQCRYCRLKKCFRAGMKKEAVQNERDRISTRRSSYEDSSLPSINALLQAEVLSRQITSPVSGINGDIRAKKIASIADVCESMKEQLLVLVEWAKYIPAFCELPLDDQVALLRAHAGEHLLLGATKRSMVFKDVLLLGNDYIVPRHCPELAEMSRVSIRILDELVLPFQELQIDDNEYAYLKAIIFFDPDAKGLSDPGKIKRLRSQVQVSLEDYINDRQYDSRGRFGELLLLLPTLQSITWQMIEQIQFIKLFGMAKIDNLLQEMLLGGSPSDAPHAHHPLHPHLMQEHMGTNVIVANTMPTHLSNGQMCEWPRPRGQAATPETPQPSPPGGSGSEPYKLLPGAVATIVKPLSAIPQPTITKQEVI
# FGF22 binding – shifts melting point of recombinant human FGF22. Q9HCT0. recombinant FGF22 thermal shift, SYPRO orange fluorescence; percent of sucrose octasulfate shift, DMSO zero. calls only at 9.99 µM. 1.5% of 340,000 active. AID 651658;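 active means melting point raised past a set limit in the mean and every replicate; inconclusive means no clear call; three in four hits are not shown here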
# Target sequence (Q9HCT0 whole entry, looked up): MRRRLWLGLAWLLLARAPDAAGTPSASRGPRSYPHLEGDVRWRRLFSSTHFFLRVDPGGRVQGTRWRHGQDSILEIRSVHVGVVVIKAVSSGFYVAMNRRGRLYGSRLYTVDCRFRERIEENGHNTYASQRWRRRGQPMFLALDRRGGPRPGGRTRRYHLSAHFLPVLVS
# MLL AF4-AF9 inh – MLL-AF4/AF9 protein interaction inhibition; 0.47% of 350,000 active; AlphaScreen, biotin-AF4 peptide binding to FLAG-AF9; inhibition, % at 10 µM; AID 651704;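 active means every replicate reaching a set inhibition limit, whatever the replicate mean, cut at about 25% in these data; inconclusive means mean inhibition reaches that limit but some replicates miss it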;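 further: 0% = plate neutral control median and 100% = total signal loss; the record names both 10 and 1 µM as test concentration; the first replicate is given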
# Active calls of the source: *; i = inactive; ? = inconclusive; nt = not tested or not shown. An excerpt. The share of hits here may be higher or lower than overall.
SMILES,Vif TR-FRET,RanGTP-Imp inh,Ecoli growth,UCH37 DUB inh,HNF4A DNA FP,FGF22 binding,MLL AF4-AF9 inh
Cc1ccc(CNc2nc(-c3cccs3)nc3ccccc23)cc1,nt,-1.2,0.68,-9.4,1.2,i,-13
NNC(=S)NC1CCS(=O)(=O)C1 (stereo not drawn),nt,?,0.7,0.8,0.9,i,-0.4
CCCCC(=O)NS(=O)(=O)c1ccc(N=NN2CCCCC2)cc1,nt,-1.0,0.66,5.4,0.5,i,-1.9
O=C(NC(Cc1ccccc1)c1nc2ccccc2[nH]1)C1CC(=O)N(c2ccc3c(c2)OCCO3)C1 (stereo not drawn),14%,-0.8,0.74,5.1,1.2,nt,nt
CCOCCCNCC(=O)Nc1ccccc1N1CCOCC1,13%,nt,0.69,4.2,1.2,nt,nt
c1ccc(-n2c(Cc3cn4ccsc4n3)nnc2N2CCOCC2)cc1,28%,-1.4,0.66,3.2,2.2,nt,nt
O=C(CNS(=O)(=O)c1ccc(Br)s1)Nc1ccc2c(c1)OCCO2,-2%,-0.2,0.71,3.0,1.4,nt,nt
COc1ccccc1N=NNc1ccccc1OC,-1%,nt,nt,nt,9.2,i,18
Cc1nc2[nH]c(=O)c3c(n2n1)NC1=C(C(=O)CC(C)(C)C1)C3c1ccc(F)cc1 (stereo not drawn),0%,35*,0.73,-282,0.9,nt,nt
Cc1cccc(Cc2nnc(CCC(=O)NCc3ccncc3C)o2)c1,4%,-2.6,0.68,0.2,2.2,i,-1.3
CC(=O)Nc1ccc(S(=O)(=O)Nc2ccc3c(c2)OCCO3)cc1Cl,28%,1.5,nt,nt,-1.6,i,-0.3
Cc1cccc(NC(=O)c2cccs2)n1,1%,1.1,0.74,7.5,-1.4,nt,nt
Nc1ncnc(Nc2c(F)cccc2F)n1,-9%,3.2,0.71,3.9,1.8,i,-1.2
COc1cccc(C(=O)N/N=C/c2cn[nH]c2-c2ccc(OC)cc2OC)c1,4%,0.0,nt,nt,-0.6,nt,nt
CC(Oc1ccccc1F)C(=O)/C=C/N(C)C (stereo not drawn),5%,-0.3,0.67,2.9,-2.5,i,6.5
COc1ccc(CNC(=O)COC(=O)c2ccccc2C(=O)c2ccccc2)cc1,-1%,6.7,0.67,1.6,4.4,i,1.1
CCCN(CCC)C(=O)CSc1nc2c(sc(=S)n2-c2ccc(OCC)cc2)c(=O)[nH]1,3%,0.3,0.69,9.9,-0.4,i,-0.2
CC(C)CC(=O)Nc1ccccc1N1CCN(c2ccc(F)cc2)CC1,?,-4.5,0.68,0.7,-1.1,i,0.0
Cc1ccc(C)c(OCCOCCN2CC(C)OC(C)C2)c1C (stereo not drawn),5%,3.2,0.67,0.6,-0.2,nt,nt
COc1ccc(C(=O)NCC(=O)OCC(=O)NCc2ccc3c(c2)OCO3)cc1,-2%,nt,0.67,3.8,0.4,i,5.2
CCCc1nc2c(sc3nc4c(cc32)COC(C)(C)C4)c(=O)n1Cc1ccco1,?,-0.6,0.67,-1.9,1.3,i,1.9
COc1ccc(-c2onc(C)c2-c2cnn(-c3ccccc3)c2)c(O)c1,?,1.7,0.67,5.1,-0.4,i,0.0
CC(=O)c1ccc(NC(=O)c2cc(=O)[nH]c3ccccc23)cc1,-13%,1.9,nt,nt,1.0,i,-4.3
Cc1cccc(NC(=O)c2cccc3c2C(=O)c2ccccc2-3)c1,-1%,-0.9,0.69,2.3,0.6,nt,nt
CC(C)CSc1nc2ccccc2c(=O)[nH]1,6%,1.4,0.75,-4.5,0.2,nt,nt
O=C(Nc1ccccc1)N1CCc2scc[n+]2-c2ccccc21,nt,4.0,0.69,-2.6,4.1,i,-8.0
Cn1cccc1C(=O)/C(C#N)=C/c1ccc(F)cc1,nt,-0.5,0.66,3.6,21,i,1.1
Cc1ccccc1Nc1nnc(SCC(=O)NC2CCCc3ccccc32)s1 (stereo not drawn),nt,2.9,0.68,0.9,-0.4,nt,nt
Cc1cccc(N2C(=O)CC(N3CCN(Cc4ccc5c(c4)OCO5)CC3)C2=O)c1 (stereo not drawn),-2%,0.3,0.68,-0.4,-0.4,nt,nt
O=C(CN1C(=O)NC2(CCCC2)C1=O)Nc1ccccc1,nt,4.9,0.66,2.1,-0.1,i,0.8
CC(/C=C/c1ccccc1)=N\NC(=O)c1cc(C)[nH]n1,3%,0.6,nt,nt,-7.1,nt,nt
O=C(C1CCCC1)N1CCC(CC2CC(c3ccc(Cl)cc3)=NO2)(C(=O)NCC2CCCCC2)CC1 (stereo not drawn),nt,-0.2,0.73,5.0,2.1,i,1.5
Cc1cc(C)cc(N(CCC#N)C(=O)COC(=O)Cn2[nH]c(=O)c3ccccc3c2=O)c1,-4%,nt,0.72,0.3,3.5,i,-1.4
CCOC(=O)c1ccccc1NC(=O)COC(=O)C1CCCC1,6%,4.7,0.69,5.3,-1.9,i,-2.9
CCOc1ccc(-c2c(=O)n(OCc3nc4ccccc4[nH]3)c3ccccc3[n+]2[O-])cc1,2%,0.6,0.64,-36,6.9,i,-0.5
CC1=Nc2ccccc2/C1=C\c1nc(-c2ccc(C(F)(F)F)cc2)oc1O,1%,-30,0.76,7.2,-53,i,3.2
O=c1c2c3c(sc2ncn1Cc1ccc(F)cc1)CCC3,5%,1.6,0.75,5.3,11,nt,nt
CCOC(=O)c1ccc(NC(=O)CSCc2ccco2)cc1,>74µM*,1.2,0.73,6.9,-0.4,nt,nt
Cc1cccc(NS(=O)(=O)c2cccc(C(=O)N3CCN(C/C=C/c4ccccc4)CC3)c2)c1,-2%,nt,0.63,-3.1,-6.1,i,0.5
COc1cccc(NC(=O)CN2CCN(CC(=O)Nc3ccccc3Cl)CC2)c1,-3%,1.2,0.65,3.3,-2.1,i,-12

# Random excerpt: two compounds from above, in no set order.
SMILES,Vif TR-FRET,RanGTP-Imp inh,Ecoli growth,UCH37 DUB inh,HNF4A DNA FP,FGF22 binding,MLL AF4-AF9 inh
CCOC(=O)c1ccccc1NC(=O)COC(=O)C1CCCC1,6%,4.7,0.69,5.3,-1.9,i,-2.9
COc1ccc(-c2onc(C)c2-c2cnn(-c3ccccc3)c2)c(O)c1,?,1.7,0.67,5.1,-0.4,i,0.0

# (more compounds)
SMILES,Vif TR-FRET,RanGTP-Imp inh,Ecoli growth,UCH37 DUB inh,HNF4A DNA FP,FGF22 binding,MLL AF4-AF9 inh
CCCn1c(N)c(C(=O)COC(=O)COc2ccc(Cl)c(C)c2)c(=O)n(C)c1=O,-3%,nt,0.62,-0.3,2.2,i,-27
C=CCN=C1SC(C)(C)C(=O)N1S(=O)(=O)c1ccc(C)cc1,nt,2.2,0.71,1.5,-2.1,i,-0.6
CC(C)C[C@@H](CO)N1CCN(Cc2ccc([N+](=O)[O-])cc2)CCC1=O,nt,-1.2,nt,1.7,1.1,i,3.0
Cc1c(NC(=O)c2cccc(-c3cc4ccccc4oc3=O)c2)cccc1-c1nc2ncccc2o1,2%,2.2,0.71,-138,2.6,i,-0.7
COc1cc(CNc2ccccc2SC)ccc1O,22%,8.3,0.66,-2.0,15,nt,nt
Cn1ccnc1SCC(=O)Nc1ccc(SC(F)F)cc1,nt,nt,0.65,1.4,4.5,i,0.7
CCCS(=O)(=O)NC(=O)C1(C)CCCN(C(=O)c2ccccc2Br)C1 (stereo not drawn),nt,nt,nt,nt,1.0,i,-0.3
CCN(CC)C(=O)C1=C(C)N(Cc2ccc(F)cc2)C(=O)C(CC(=O)NCCc2ccccn2)C1 (stereo not drawn),-3%,nt,nt,nt,-2.3,i,2.6
O=C(CSc1nnc(-c2ccc(S(=O)(=O)N3CCCC3)cc2)o1)NCC1CCCO1 (stereo not drawn),-3%,-8.4,0.68,1.1,2.2,nt,-2.9
O=c1[nH]cnc2c1C(c1ccc(Cl)cc1)c1c(nc[nH]c1=O)O2,6%,?,0.64,0.2,2.7,nt,nt
O=C1CS/C(=N/N=C/c2ccccc2)N1Cc1ccco1,-6%,-3.7,nt,nt,3.4,i,12
COc1ccc(-c2nc(C#N)c(N3CCN(c4ccccc4)CC3)o2)cc1,2%,2.7,0.73,-9.5,-0.9,i,-1.3
Cc1ccc(-c2c(C(=O)NCc3ccc(F)cc3)oc(=O)c3ccccc23)cc1,-10%,-3.1,0.68,0.1,-3.9,nt,nt
COc1ccc(-n2cc(C(=O)O)c3ccccc3c2=O)cc1,-6%,?,0.62,-0.8,0.0,nt,nt
COc1ccc(CCN2C(=O)C3CC(C)=C(C)CC3C2=O)cc1OC (stereo not drawn),-2%,-4.0,0.69,4.9,3.4,nt,nt
CN(C)C(=O)c1ccc(NC(=O)COC(=O)c2cc3c(s2)CCCCC3)cc1,2%,nt,0.71,0.4,-0.5,i,-0.6
Cc1c(C(=O)Nc2nnc(C(F)(F)F)s2)oc2ccccc12,-5%,6.8,0.73,-2.6,1.4,i,-1.7
Nc1cc2nc3ccccc3oc-2cc1=O,?,nt,0.69,16,3.9,i,6.0
Cc1ccc(F)cc1NS(=O)(=O)c1ccc(Cl)s1,10%,nt,0.62,0.7,-2.7,nt,nt
CC1(C)CC(NC(=O)COc2ccc3ccccc3c2)CC(C)(C)N1,-2%,-3.0,0.68,3.0,0.4,nt,nt
Cn1cc(C(=O)c2ccc(Cl)cc2)cc1-c1nc2ccccc2n1C,-33%,3.8,0.77,-3.7,-3.7,nt,nt
CC(C)CNS(=O)(=O)c1cc(C(=O)OCC(=O)c2ccc3c(c2)OCCO3)c(Cl)cc1Cl,8%,-0.8,0.73,2.0,1.8,i,0.2
Cc1cccc(OCc2nnc(SCC(=O)N3c4ccccc4CCc4ccccc43)o2)c1,nt,-1.1,0.76,4.7,1.1,i,-0.5
CN(C)c1cc(-c2cccc(C(F)(F)F)c2)oc(=O)c1Cl,nt,1.0,0.7,-0.4,1.1,i,0.1
CC(C)[C@H](NC(=O)N1c2ccccc2NC(=O)[C@@H]1C(C)C)C(=O)N[C@@H](Cc1ccccc1)C(=O)O,nt,2.0,0.7,1.3,2.7,i,0.1
Cc1cccc(N2C(=O)C(Cl)=C(N3CCOCC3)C2=O)c1,nt,2.8,0.7,5.7,-0.9,i,-5.4
Cc1n[nH]c(C)c1S(=O)(=O)N1CCCCCC1,7%,-1.2,0.76,3.8,1.9,nt,nt
O=[N+]([O-])/C=C/c1cc2ccccc2[nH]1,13%,12,0.5*,5.5,-3.3,i,5.7
O=C(O)CC1(c2ccc(F)cc2)C2CC3CC(C2)CC1C3 (stereo not drawn),nt,4.2,0.63,1.3,-5.9,i,-1.5
Cc1scc(C(=O)N/N=C/c2ccc(OCC(C)C)cc2)c1C,12%,1.1,nt,nt,3.9,nt,nt
O=C(COC(=O)/C=C/c1ccco1)NCc1ccccc1,nt,3.1,0.69,6.3,-0.5,i,1.4
COc1cccc(NC(=O)CN2C(=O)CSc3ccc(S(=O)(=O)N4CCOCC4)cc32)c1,nt,4.7,0.72,0.4,1.2,i,12
O=C(CCCN1C(=O)/C(=C/c2cccs2)SC1=S)Nc1ccc(C(=O)O)cc1,-5%,0.2,0.68,8.4,-0.9,i,3.4
Cc1cc(NC(=O)CCC(=O)N(Cc2ccco2)C2(C(=O)NC3CCCCC3)CCN(C)CC2)no1,4%,2.3,0.72,0.9,0.2,nt,nt
Cc1occc1-c1nnc(SCC(=O)NC(C)(C)C)n1CC(C)C,-10%,0.2,0.67,1.8,7.1,i,-2.9
COc1ccc(CCNC(=O)c2ccc3c(c2)S(=O)(=O)N=C2CCCCCN23)cc1OC,18%,nt,nt,nt,2.1,i,1.2
CCCCN1C(=O)C(=O)NC[C@@H]1CCCCN,nt,-3.0,nt,-2.9,-1.9,i,-0.3
COc1ccccc1N1CCN(C(=O)CSc2nnc3c4ccccc4nc(Cc4ccccc4)n23)CC1,nt,0.0,0.64,0.3,nt,nt,nt

# Source: PubChem
